Screening results: PubChem, National Center for Advancing Translational Sciences (NCATS)
hNpr1 antagonist: blocks ANP-stimulated signaling of human Npr1 receptor. 76,000 tested, 1.6% active. HEK293 hNpr1 GloSensor cGMP, ANP-stimulated luminescence. Potency, µM (doses to about 46.3 µM), for the others: at the top dose activity change, negative = inhibition, usual class: inhibitors. P16066; active = well fitted inhibition curve with a large enough effect; inconclusive = small, poorly fitted or top-dose-only effect; inactive = no such curve, though single readings can be large or run the other way;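 further: nearly all actives have a fitted effect of over 60% in size; nearly all hits also lower the signal before the agonist is added; a reference antagonist and vehicle were the controls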
Target sequence (P16066 whole entry, looked up): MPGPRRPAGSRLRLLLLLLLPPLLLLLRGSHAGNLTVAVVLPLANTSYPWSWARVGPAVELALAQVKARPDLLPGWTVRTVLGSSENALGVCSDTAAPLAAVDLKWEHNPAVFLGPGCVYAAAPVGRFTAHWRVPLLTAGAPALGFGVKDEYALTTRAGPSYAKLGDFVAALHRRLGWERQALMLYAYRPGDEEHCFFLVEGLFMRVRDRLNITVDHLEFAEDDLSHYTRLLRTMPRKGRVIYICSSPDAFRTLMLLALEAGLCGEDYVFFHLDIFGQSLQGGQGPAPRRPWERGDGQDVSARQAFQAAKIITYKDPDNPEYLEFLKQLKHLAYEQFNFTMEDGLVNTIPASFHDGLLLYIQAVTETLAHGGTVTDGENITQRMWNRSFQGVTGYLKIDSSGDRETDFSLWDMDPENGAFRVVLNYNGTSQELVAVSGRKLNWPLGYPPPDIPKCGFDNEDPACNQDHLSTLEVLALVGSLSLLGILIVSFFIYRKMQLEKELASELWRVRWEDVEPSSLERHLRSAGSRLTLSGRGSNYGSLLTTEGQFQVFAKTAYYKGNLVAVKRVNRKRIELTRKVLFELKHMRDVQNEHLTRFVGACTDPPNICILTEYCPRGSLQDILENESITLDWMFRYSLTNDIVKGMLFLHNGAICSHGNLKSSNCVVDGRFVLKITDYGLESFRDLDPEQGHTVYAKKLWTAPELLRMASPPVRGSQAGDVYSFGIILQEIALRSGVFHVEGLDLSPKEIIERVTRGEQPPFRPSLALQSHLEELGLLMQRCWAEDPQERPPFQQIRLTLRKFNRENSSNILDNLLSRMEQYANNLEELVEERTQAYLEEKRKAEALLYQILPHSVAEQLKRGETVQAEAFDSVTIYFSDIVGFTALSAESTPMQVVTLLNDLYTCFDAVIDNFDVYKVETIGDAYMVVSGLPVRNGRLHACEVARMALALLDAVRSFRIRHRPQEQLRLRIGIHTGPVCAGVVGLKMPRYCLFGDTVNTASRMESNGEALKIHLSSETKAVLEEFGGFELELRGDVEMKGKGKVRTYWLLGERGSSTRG
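Compound pre-incubated 30 min at room temperature on GloSensor-loaded HEK293 cells stably carrying hNpr1 and the pGS-40F cGMP biosensor. Stimulation uses hNppA at 0.1 nM final; luminescence is taken at baseline and 20 min post-agonist.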
Numbers without * were called inactive; ? = inconclusive; [ ] = dose if it differs, or a comment. On the % scale 0 is the no-effect control and ±100 the full control effect; potency means the concentration at half of the fitted maximal effect. Not all compounds are listed, so the mix of outcomes need not match the whole.

hNpr1 antagonist | SMILES
6% | Cc1noc(C)c1Cc1c(C(=O)NCC23CCC=C2N(C)C(=O)CC3)noc1C (configuration not stated)
1% | N#Cc1cccc(C(=O)Nc2ccc([C@H]3OCC(=O)N(C4CCOCC4)[C@@H]3CO)cc2)c1
-9% | COc1ccc2c(c1)CCc1c-2n[nH]c1C(=O)N1CCc2nc3cc[nH]n3c(=O)c2C1
0% | Cc1cc(C)n(CC2(Cn3cc(C4CCCNC4)nn3)CC2)n1 (configuration not stated)
-13%[70.6 µM] | OCc1cccc(-c2cc(-c3ccncc3)c3cncn3c2)c1
3%[70.6 µM] | O=C(c1ccccc1)N1CCN2C(=O)N(Cc3ccc(F)cc3)C[C@H]2C1
-3% | O=C(Nc1cccc(F)c1)N1Cc2[nH]cnc2C[C@H]1c1nc(-c2ccc(C(F)(F)F)cc2)no1
-9% | Cc1occc1C(=O)N1CCCC(O)(CNC(=O)N2CCOCC2)CC1 (configuration not stated)
-5% | COc1cccc(NC(=O)Cn2c(-c3ccc(F)cc3)nc(C)cc2=O)c1
0% | O=C(O)C[C@@H]1CCN(C(=O)c2ccnc(Cl)c2)C[C@@H]1CCN1CCN(c2ccc(F)cc2)CC1
3% | COCCN1CCC2(CCC1=O)CN(CCC(=O)N1CCCC1)CCN2C (configuration not stated)
3% | CS(=O)(=O)c1ccc(CN2C[C@H](O)C[C@H]2c2nc(-c3ccc4c(c3)OCO4)no2)cc1
6% | CC(C)C(=O)NCC12CCCC=C1NC(=O)CC2 (configuration not stated)
1% | CCc1ccc(C(=O)N2CCN(C3CCN(CCc4ccccc4)C3=O)CC2)cc1 (configuration not stated)
3% | COc1ccc(CC2CN(C(=O)c3ccnc(N)c3)CCO2)cc1 (configuration not stated)
5% | Cc1noc(C)c1C(=O)N1CCC2(CC1)c1[nH]c3ccccc3c1CCN2C
-2% | CCn1ccc(C(=O)N2CCC(Cc3ncc(C)n3CCOC)CC2)n1
6% | Cc1cc(S(=O)(=O)N(C)CC2CCOC2)ccc1F (configuration not stated)
0% | CC(=O)Nc1cccc(-c2nc(-c3nnn4c3COC(c3ccc(C)cc3)C4)no2)c1 (configuration not stated)
-4%[70.6 µM] | COCc1cc(C[C@@H]2CC[C@H](O)[C@@H](CNC(=O)Nc3ccccc3)O2)no1
-1% | COc1ccc(NC(=O)O[C@@H]2CO[C@H]3[C@@H]2OC[C@@H]3Nc2nccc(-c3cccc(C#N)c3)n2)cc1
-7% | Cc1ccc(C(=O)N2CCC(Oc3ccc(C(=O)N(C)C)cn3)CC2)cc1F
4% | c1ccc2c(N3CCN(Cc4cc5n(n4)CCNC5)CC3)nsc2c1
-10%[70.6 µM] | CC(C)NC(=O)N1Cc2[nH]cnc2C[C@H]1C(=O)NCc1ccc(Cl)cc1
2% | O=C(Cn1nc2c(cc1=O)CCCC2)NCC1CCOCC1
6.3µM* | Cc1ccc(C(=O)N2CCC(Cc3nc(-c4ccccc4)no3)CC2)c(C)c1
-1%[70.6 µM] | Clc1ccc(CN2CCOC[C@H](Oc3ccccc3)C2)cc1
2% | Cc1cccc(C(=O)N2CCCCCCN(C)C(=O)[C@@H]3CCC[C@@H]32)c1
6%[70.6 µM] | COc1ccc2c(c1)CN(C1CCOCC1)CC[C@H]1COC(=O)N21
17% | COc1ccc(C2(C(=O)N3CCC4(CC3)CC(N3CCCCC3)CCO4)CC2)cc1 (configuration not stated)

Ordered by the number under hNpr1 antagonist (rising): some entries from above
hNpr1 antagonist | SMILES
-9% | COc1ccc2c(c1)CCc1c-2n[nH]c1C(=O)N1CCc2nc3cc[nH]n3c(=O)c2C1
-3% | O=C(Nc1cccc(F)c1)N1Cc2[nH]cnc2C[C@H]1c1nc(-c2ccc(C(F)(F)F)cc2)no1
-2% | CCn1ccc(C(=O)N2CCC(Cc3ncc(C)n3CCOC)CC2)n1
3% | COCCN1CCC2(CCC1=O)CN(CCC(=O)N1CCCC1)CCN2C (configuration not stated)

More records.
hNpr1 antagonist | SMILES
4% | Cc1ccc(NC(=O)Cn2c(-c3ccc(Cl)cc3)nc(C)c(CCO)c2=O)c(C)c1
4%[70.6 µM] | CC(C)C(=O)N[C@H]1C[C@@H](Cc2cc(CN3CCOCC3)on2)C1(C)C
2% | COCc1cc(=O)[nH]c(N2CCCC2)n1
0% | CN1[C@@H](CCC(=O)NCc2ccco2)CNC(=O)[C@@H]2[C@H]1CCN2Cc1nc2ccccc2n1C
-20% | COc1cc(C(=O)N2CCCN(C)c3ccccc32)cc(OC)c1OC
-3% | CC(C)(C)CC(=O)Nc1ccc2c(N3CCOCC3)ncnc2c1
-3% | CS(=O)(=O)Nc1ccc(C2(C(=O)NCc3cccc(F)c3)CCCCC2)cc1
5%[70.6 µM] | COCCNc1ncc(-c2ccc(OC)cc2)c2c1OCC2
5% | Cc1cc(C)n(Cc2cc(C(=O)NC[C@H]3C[C@H]4C=C[C@H]3C43CC3)n[nH]2)n1
-18% | CCOc1ccccc1NC(=O)Cn1c(=O)n(-c2ccccc2)c(=O)c2c1cc(C)n2C
0% | Cn1cc(C2c3nccn3CCCN2C(=O)c2ccccc2F)cn1 (configuration not stated)
-4% | COc1ccc(C(C)NC(=O)c2cc(-c3ccccc3)cn2C)cc1OC (configuration not stated)
-5%[70.6 µM] | O=C(Cc1ccccc1)N1CCC2(Cc3ccccc3NC2=O)C1 (configuration not stated)
-3% | O=C(Cc1cccc(F)c1)NCc1nnc2cc(-c3nc(C4CC4)no3)ccn12
5% | Cc1nc([C@@H]2CN(S(=O)(=O)c3ccc4c(c3)CCC4)C[C@H]2C(N)=O)n[nH]1
5% | c1cc(-c2n[nH]c(C3CCCCN3)n2)ccn1 (configuration not stated)
-19% | CCCCOC(=O)C1=CN(Cc2ccccc2)S(=O)(=O)N=C1C
1% | Oc1cccc(CN(Cc2ccsc2)Cc2ccco2)c1
3%[70.6 µM] | CC1=C[C@@H](CNS(C)(=O)=O)[C@H](C(C)C)C[C@H]1CC(=O)O
1% | COc1ccc(NC(=O)[C@H]2CN(Cc3ccccc3)C[C@H]2C(=O)O)cn1
-14% | COc1ccc(NC(=O)Cn2c(-c3ccc(Cl)cc3)nc(C)cc2=O)cc1
-21% | O=C(COc1ccc(F)cc1)Nc1cccc(-c2nnc3n2CCCC3)c1
1%[70.6 µM] | CS(=O)(=O)N[C@H]1C[C@H]2C(=O)NC[C@@H](CCC(=O)N3CCCCC3)N2C1
-3% | O=C(c1cccc(C(F)(F)F)c1)N1CCC(c2n[nH]c(=O)n2-c2ccccc2)CC1
-14% | NC(=O)[C@@H]1CCCN1c1ccc(-c2nc(Cc3ccccc3)no2)cn1
-5%[70.6 µM] | C1=C(c2cc(-c3cccc4[nH]ccc34)cn3cncc23)CCOC1
4% | COCC1CN(C(=O)c2ccc(C)c(C)c2)CC12CCNCC2 (configuration not stated)
-6% | Cc1noc([C@H]2CCN(Cc3cccnc3)C[C@H]2NC(=O)C2CC2)n1
4% | CN1c2cc(C(=O)NCc3cccc(F)c3)ccc2C(=O)N2CCCCC21 (configuration not stated)
7% | O=C(CN1C(=O)NC2(CCOCC2)C1=O)Nc1ccccc1
-13% | O=C(CCc1nc2ccccc2s1)N1CCC(c2noc(-c3ccncc3)n2)C1 (configuration not stated)
5% | CN(C)C(=O)Cc1ccccc1-n1ccnc1-c1cc2n(n1)CCCNC2
-6% | COc1cccc(NC(=O)Cn2c(C)cc3nc4n(c(=O)c32)CCC4)c1
2% | COCc1nc(C2CCN(C(=O)c3cccnc3)C2)no1 (configuration not stated)
4% | CC(C)(C)C1CCC2(CC1)NC(=O)N(CC(=O)NCc1ccccc1)C2=O (configuration not stated)
-19% | O=C(N1CCC[C@H]1c1nc(-c2ccccc2Cl)no1)C1(c2ccccc2)CC1
-12% | CC(C)c1noc(C2CCCN(C(=O)NCCc3ccccc3)CCC(=O)NCC2)n1 (configuration not stated)
3% | O=C(CC1CCOC2(CCN(S(=O)(=O)c3ccccc3)CC2)C1)N1CCCC1 (configuration not stated)
6% | CN(C)c1nccnc1OC1CCN(C(=O)CC2CCCC2)C1 (configuration not stated)
7% | CN1C(=O)CCC2(CNC(=O)C3CC3)CCC=C12 (configuration not stated)
-19% | COc1cccc(CN2CC(Oc3ccccc3C(=O)NCc3ccccc3)C2)c1
-20%[70.6 µM] | CN(C)CCNC(=O)c1nc2nc(-c3ccccc3)c(-c3cccc(Cl)c3)cc2n1C
9% | O=C(c1ccco1)N1CCN(C(=O)C2NCCc3[nH]cnc32)CC1 (configuration not stated)
0% | COc1ccc(N2CC(c3noc(-c4ccccc4F)n3)CC2=O)cc1OC (configuration not stated)
2% | CS(=O)(=O)c1cnc(NC2CCCCCC2)nc1C1CCCNC1 (configuration not stated)
0% | O=C1CCN(C(=O)Cn2ccnc2)CCCC(c2nc(-c3cccnc3)no2)CCN1 (configuration not stated)
-1% | Cc1ccccc1-n1cc(CNC(=O)C(c2cccc(F)c2)N(C)C)cn1 (configuration not stated)
7% | CCOCC(=O)N1CCn2nc(Cc3ccccc3)cc2C1
2% | CCN(C(=O)CN1C(=O)NC2(CCS(=O)(=O)CC2)C1=O)c1cccc(C)c1
-1%[70.6 µM] | Cn1cc(-c2cnc(Nc3cnccn3)c3c2CCO3)cn1
3% | COc1ccc(C(=O)N2CCC3(CC2)OCC(C(=O)NC2CC2)N3C(=O)c2ccc(OC)cc2)cc1 (configuration not stated)
1% | O=c1n(Cc2ccc(F)cc2)nc2n1CCCCC2
-1% | CCC(=O)N1CCCN(CC)C2(CCOCC2)C1
7% | O=C1CC(c2ccccc2)NCCCCCN1 (configuration not stated)
16% | COc1ccc(S(N)(=O)=O)cc1C(=O)N1CCOCC1CC(=O)O (configuration not stated)
3% | COc1ccc(C(=O)N2CCC(C(=O)N3CCCCCCNC(=O)CC3)CC2)c(OC)c1
6% | CC(C)N(Cc1cnn(C)c1)Cc1cn(Cc2ccccc2)nc1-c1ccc2c(c1)OCO2
-15% | Cc1cc2nc3n(c(=O)c2n1CC(=O)NCc1cccc(Br)c1)CCCCC3
7% | COc1ccc(Cl)cc1-c1nc(-c2nnn3c2COC(c2ccc(C)cc2)C3)no1 (configuration not stated)
-1% | FC(F)(F)Oc1ccccc1Cn1ccnc1-c1cc2n(n1)CCNC2

(listing goes on)
hNpr1 antagonist | SMILES
2% | COCCN(C)C(=O)c1cn(C2CN(C(=O)NCc3ccc(C)cc3)C2)nn1
14µM* | Cc1nc(C)c(CC(=O)N2CCCC(C)(Cc3ccc4c(c3)OCO4)C2)s1 (configuration not stated)
-15% | CC(C)NC(=O)c1ccccc1OCC1CCCN(Cc2cn(C)c3ccccc23)C1 (configuration not stated)
-2% | C=CCOC(=O)C1=C(C)N(Cc2cc(F)cc(F)c2)C(=O)CC1c1ccccc1Cl (configuration not stated)
? | Cc1ccc(C(=O)N2CCC3(CC2)NC(=O)N(Cc2ccc(F)cc2)C3=O)cc1F
-21% | CCOc1ccc(CN2C[C@@H]3C(=O)N(CCc4ccccc4)C(=O)[C@@H]3C2)cc1OC
3% | O=C(NCCn1ccn2nc(-c3ccc(F)cc3)cc2c1=O)c1c(F)cccc1F
-2% | O=C1NC2(CCN(C(=O)c3ccc(C(F)(F)F)cc3)C2)Oc2ccccc21 (configuration not stated)
1% | O=C(CCC1CCN(S(=O)(=O)c2cccc(F)c2)CC1)NCCCN1CCCC1=O
0% | COc1ccc(-c2cnc3n2CC(C(=O)NCCCN2CCCC2=O)CC3)cc1 (configuration not stated)
16µM* | Cc1nn2c(c1-c1ccnn1C(C)C)N(Cc1ccc(C(=O)O)s1)CCC2
7% | Cc1noc(C)c1S(=O)(=O)N1CCC2(CC1)CC1C(=O)NCCN1C2 (configuration not stated)
5% | CCc1nc(-c2c3n(c(=O)n(Cc4ccccc4C(F)(F)F)c2=O)CCCC3)no1
-2% | CCc1nc2c(c(-c3ccc(O)cc3)n1)CCN(Cc1ccccc1C(F)(F)F)CC2
-14% | COc1ccc(NC(=O)N2CC(N(C3CCOCC3)S(C)(=O)=O)C2)cc1OC
? | O=C(Cc1c[nH]c2ccccc12)N1CCC(CCOc2ccccc2F)C1 (configuration not stated)
? | COc1ccccc1Nc1cnc2ccc(-c3cccc(CO)c3)nn12
4% | Cc1noc([C@@H]2CN(C(=O)c3nccc4ccccc34)C[C@H]2CO)n1
-7% | Cc1ccc(-c2nccn3cc(C(=O)N4CCN(C5CCCCC5)CC4)nc23)cc1
-1% | COC1CCOC2(CCN(C(=O)c3ccncc3)CC2)C1 (configuration not stated)
6% | NC(=O)CCNC(=O)[C@@H]1C[C@@H](NS(=O)(=O)c2cccs2)CCN1C(=O)COCC(=O)O
-1% | Cc1[nH]ncc1CNC(=O)C1(Cc2ccccc2)CCCCC(=O)N1 (configuration not stated)
-16% | O=C([C@@H]1C[C@H](c2ccc(F)cc2)N(Cc2ccccc2Cl)C1)N1CCN(CCO)CC1
3%[70.6 µM] | Cc1ccc(S(=O)(=O)N[C@H](C)c2onc(-c3ccc(F)cc3)c2C(=O)O)cc1
0% | O=C1CCN(S(=O)(=O)c2ccccc2)CCCN(Cc2cccc3[nH]ccc23)CCN1
3% | O=C1CC(c2ccccc2)N(C(=O)C2CC2)CCCN(C(=O)c2n[nH]c3ccccc23)CCN1 (configuration not stated)

3 compounds drawn at random from the list so far, as already listed:
hNpr1 antagonist | SMILES
-14% | COc1ccc(NC(=O)N2CC(N(C3CCOCC3)S(C)(=O)=O)C2)cc1OC
-16% | O=C([C@@H]1C[C@H](c2ccc(F)cc2)N(Cc2ccccc2Cl)C1)N1CCN(CCO)CC1
7% | Cc1noc(C)c1S(=O)(=O)N1CCC2(CC1)CC1C(=O)NCCN1C2 (configuration not stated)
